# Compound activity deposited in PubChem BioAssay by several laboratories.
# MLL AF4-AF9 inh: inhibitors of AF4 peptide binding to AF9, primary screen, biochemical, AlphaScreen, biotin-AF4 peptide, FLAG-AF9, single point | inhibition, % at 10 µM | Protein AF-9 (Homo sapiens), P42568 | 350,000 compounds, 0.47% hits;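 active = every replicate reaching a set inhibition limit, whatever the replicate mean, cut at about 25% in these data; inconclusive = mean inhibition reaches that limit but some replicates miss it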;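 also: 0% = plate neutral control median and 100% = total signal loss; the record names both 10 and 1 µM as test concentration; the first replicate is given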
# HNF4A DNA FP: change in binding of human HNF4A to DNA, primary screen, biochemical, fluorescence polarization, FITC-DNA; 1 h; activity change, % at 10 µM; 360,000 compounds, 0.3% hits; AID 1224865, 2016; in the data active = activity change above about 30%, passing the limit was not always enough;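 also: controls were the assay level and a saturating level of protein; the project sought stronger binding though the title names inhibitors; some compounds called inactive have numbers as strong as hits; positive values seem to mean higher polarization but the record does not say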
# Target sequence (P41235 whole entry, looked up): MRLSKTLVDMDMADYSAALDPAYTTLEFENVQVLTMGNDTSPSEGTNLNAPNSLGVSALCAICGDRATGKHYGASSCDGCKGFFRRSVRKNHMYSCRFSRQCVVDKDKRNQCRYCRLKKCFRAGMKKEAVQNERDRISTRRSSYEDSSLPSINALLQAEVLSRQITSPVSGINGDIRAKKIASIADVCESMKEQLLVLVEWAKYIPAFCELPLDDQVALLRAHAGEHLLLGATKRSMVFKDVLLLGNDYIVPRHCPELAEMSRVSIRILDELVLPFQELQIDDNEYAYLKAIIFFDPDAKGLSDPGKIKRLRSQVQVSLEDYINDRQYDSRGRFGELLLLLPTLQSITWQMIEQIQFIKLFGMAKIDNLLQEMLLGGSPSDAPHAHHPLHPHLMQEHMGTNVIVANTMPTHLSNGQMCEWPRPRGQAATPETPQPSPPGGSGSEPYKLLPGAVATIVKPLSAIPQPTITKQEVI
# Ecoli rRNA inh: reduced GFP signal of wild-type E. coli, primary screen, bacterial rRNA inhibitor project, GFP/RFP fluorescence, OD600, single point | 350,000 compounds, 1.6% hits | GFP signal change (wild-type ribosome), % (concentration not given with the values) | AID 720706, 2013 | E. coli WT GFP vs humanized-ribosome RFP mutants, 24 h; active compounds read low; DMSO median 0, no signal -100;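 active = significant combined selectivity score with lowered wild-type GFP, culture density cut under 30%, mutant RFP and density less affected; inactive = any of these conditions unmet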; also: one replicate is shown; some compounds called inactive have numbers as strong as hits
# ALR H2O2 inh: inhibitors of human ALR sulfhydryl oxidase, primary screen, biochemical, H2O2 detection, HRP-luminol luminescence, single point; AID 485317, 2010; purified ALR, DTT oxidation; inhibition, % (test concentration not listed); 290,000 compounds, 3.8% hits; FAD-linked sulfhydryl oxidase ALR (Homo sapiens), P55789;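 active = mean and each replicate at 75% or more; inconclusive = only one of the two met; inactive = neither met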;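 also: stock transfer was 7.5 nL into about 7.5 µL; 0% = neutral wells and 100% = wells with inactivated enzyme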
# Target sequence (P55789 whole entry, looked up): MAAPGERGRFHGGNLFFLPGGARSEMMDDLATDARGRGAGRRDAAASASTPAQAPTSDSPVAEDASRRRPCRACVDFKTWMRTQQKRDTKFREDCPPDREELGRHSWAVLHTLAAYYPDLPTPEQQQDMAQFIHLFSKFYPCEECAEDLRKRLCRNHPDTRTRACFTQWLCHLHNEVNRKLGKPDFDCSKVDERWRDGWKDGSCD
# Ecoli growth: E. coli growth inhibition, primary screen, OD600 | Escherichia coli growth, 23 h; active compounds read low | 330,000 compounds, 0.21% hits | OD600 absorbance (test concentration not listed);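 active = OD600 absorbance below the run mean of sample wells minus 3.6 SD, in any replicate, cut at about 0.56 in these data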;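 also: stock transfer was 300 nL into about 60 µL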
# FGF22 binding: binders of human FGF22 protein, primary screen, FGF22 synaptogenesis inhibitor project, biophysical, thermal shift, single point | Fibroblast growth factor 22 (Homo sapiens), Q9HCT0 | recombinant FGF22 thermal shift, SYPRO orange fluorescence; percent of sucrose octasulfate shift, DMSO zero | calls only at 9.99 µM | 340,000 compounds, 1.5% hits | AID 651658, 2012;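 active = melting point raised past a set limit in the mean and every replicate; inconclusive = no clear call; three in four hits are not shown here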
# Target sequence (Q9HCT0 whole entry, looked up): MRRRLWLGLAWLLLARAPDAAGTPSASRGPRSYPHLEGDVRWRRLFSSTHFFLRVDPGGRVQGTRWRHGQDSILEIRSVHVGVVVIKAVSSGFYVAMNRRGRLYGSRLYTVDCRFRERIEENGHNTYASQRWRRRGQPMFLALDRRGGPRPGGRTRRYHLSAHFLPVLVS
# Vif TR-FRET: inhibitors of Vif binding to APOBEC3G peptide, primary screen, biochemical, TR-FRET, GST-Vif 1-94, biotin-A3G peptide, dose response retest (AID 1117319) | Virion infectivity factor (Human immunodeficiency virus type 1 group M subtype B (isolate … | one-dose inhibition, %; IC50 in µM for titrated hits | TR-FRET GST-Vif / biotin-A3G peptide binding; higher % means a stronger effect; test concentration not given here; strong numbers were not always called active | 260,000 compounds, 0.57% hits;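 active = above the screen mean plus three standard deviations and confirmed in dose response; inconclusive = results disagree or hit not tested in dose response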;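 also: Vif residues 1-94 fused to GST binding biotinylated APOBEC3G peptide 110-148; 0% = full assay without inhibitor and 100% = GST in place of GST-Vif; retest series ran down from 100 µM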
# Ecoli rRNA inh OD600: also measured in Ecoli rRNA inh; calls as there; OD600 change, %; measured here: OD600 growth;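 optical density of the mix in the first replicate; 0 = DMSO median and -100 = no signal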
# Ecoli rRNA inh RFP: recorded beside Ecoli rRNA inh, whose call it bears; RFP signal change, %; measured here: RFP humanized mutant strains;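 first replicate; 0 = DMSO median and -100 = no signal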
# Numbers without * were called inactive; i = inactive; ? = inconclusive; . = not tested or not shown; + = active, no number.
SMILES,MLL AF4-AF9 inh,HNF4A DNA FP,Ecoli rRNA inh,Ecoli rRNA inh OD600,Ecoli rRNA inh RFP,ALR H2O2 inh,Ecoli growth,FGF22 binding,Vif TR-FRET
CCOC(=O)C1C(=O)NC(N2CCN(c3ccccc3)CC2)=NC1c1ccco1 (centres undefined),.,2.4,.,.,.,33.4,0.675,.,-1.3%
CCOC(=O)CN1C(=O)SC(CC(=O)Nc2nccs2)C1=O (centres undefined),.,-2.7,.,.,.,5.4,0.73,.,8.2%
CCSc1nnc(NC(=O)CSC2=NN3CCCC(=O)N=C3S2)s1,-0.4,3.8,8.7,2.8,0.4,-1.9,.,i,.
CCN(CC)CCNC(C(=O)Nc1ccc([N+](=O)[O-])cc1Br)c1ccccc1 (centres undefined),.,-1.3,.,.,.,-4.0,0.642,.,-2.8%
C1=C[C@H]2CC[C@@H]1N(c1ccccc1)O2,-2.6,-0.4,8.0,6.1,1.3,.,0.722,i,-4.0%
CN1CCN(C(=O)/C=C/c2ccc3c(c2)OCO3)CC1,-0.7,-3.9,9.9,-0.2,-8.1,-8.8,0.683,i,-3.9%
COc1ccc(-c2cc(C(=O)Nc3ccc(S(N)(=O)=O)cc3)c3ccccc3n2)cc1OC,1.3,4.1,-2.5,-3.8,1.1,-8.6,0.672,i,-11.1%
O=C(C[C@@H]1C=C[C@@H](NC(=O)Nc2ccc3c(c2)OCO3)[C@@H](CO)O1)NCc1ccc2c(c1)OCO2,-1.7,.,2.0,11.1,-1.3,.,.,i,.
COc1cccc(NC(=O)Cc2ccc(C)cc2)c1,.,3.1,.,.,.,-3.4,0.699,.,31.1%
C[C@@H]1CN([C@H](C)CO)C(=O)c2cc(NC(=O)Cn3cnnn3)ccc2O[C@@H]1CN(C)C(=O)Nc1ccccc1,-11.3,.,5.2,6.7,1.0,.,.,i,.
CC(C1CC1)N(C(=O)NC1CCS(=O)(=O)C1)c1ccccc1 (centres undefined),.,-0.2,.,.,.,-13.4,0.722,.,-1.4%
CCOc1ccc(NC(=O)CCS(=O)(=O)c2ccc(C)cc2)cc1,1.9,1.1,8.0,9.4,1.0,-3.7,0.664,i,-2.9%
CCN(c1ccc(OC)cc1)S(=O)(=O)c1nnc(NC(=O)c2ccco2)s1,-3.5,-2.5,3.1,6.3,-0.8,-3.7,0.694,i,.
COCc1cn(CC[C@H]2CC[C@H](NC(=O)c3ccccc3)[C@@H](CO)O2)nn1,-0.7,.,1.9,-0.2,-2.5,.,.,i,.
CC(C)c1onc(C(=O)N2CCN(Cc3ccccc3)CC2)c1[N+](=O)[O-],1.3,3.0,2.9,-0.5,1.4,-13.6,0.755,i,-2.1%
COc1ccccc1-c1ccc2c(c1)[C@H]1[C@H](CCN1S(=O)(=O)c1cccc(C)c1)[C@H](CO)N2,4.4,.,0.8,12.2,1.4,.,.,i,.
CCn1c(SC/C=C/c2ccccc2)nnc1-c1cccs1,.,1.2,.,.,.,-0.8,0.711,.,-0.8%
CCC(=O)N1CCc2cc(S(=O)(=O)NCCC(=O)N3CCN(c4ccccc4)CC3)ccc21,-1.6,1.7,-0.3,-0.8,-1.9,6.2,0.686,i,5.2%
O=C(NCCCn1ccnc1)C1CCN(S(=O)(=O)c2ccc(F)cc2)CC1,2.8,-0.1,2.3,11.0,-2.0,2.5,0.717,i,.
CN(Cc1ccccc1)Cc1ccccc1F,.,-2.0,.,.,.,-2.8,0.695,.,-0.7%
CC(C)c1ccc(Nc2ncc3c(n2)CCN(C(=O)NC2CCCCC2)C3)cc1,0.5,3.6,-4.2,-20.8,6.0,.,.,i,.
Cc1ccc(NC(=O)CN(C)CC(=O)Nc2ccc(F)c(F)c2F)c(Cl)c1,-2.5,1.8,-20.5,-31.7,0.2,-1.6,0.682,i,-5.2%
C[C@@H]1CN([C@H](C)CO)C(=O)c2cc(NS(C)(=O)=O)ccc2O[C@@H](C)CCCCO[C@H]1CN(C)S(=O)(=O)c1cn(C)cn1,-1.1,.,2.0,1.5,-0.8,.,.,i,.
Cc1ccc(S(=O)(=O)Nc2ccc3cn[nH]c3c2)c(C)c1,1.5,-1.8,-18.8,-19.6,4.8,-7.8,0.684,i,-8.5%
OCCNc1nc(-c2ccccc2)nc2ccccc12,-2.2,1.6,-8.8,-2.4,0.1,.,0.671,i,-9.1%
COc1ccc(C(=O)OCC(N)=O)cc1[N+](=O)[O-],5.3,0.0,1.3,11.8,-3.1,-0.7,0.696,i,0.0%
Cc1ccc(C2/C=C\CC(NC(=O)OCC3c4ccccc4-c4ccccc43)CC(=O)N2Cc2ccccc2)cc1 (centres undefined),-0.4,3.8,-12.0,-1.7,1.8,.,0.746,i,3.6%
N#CCSc1ccccc1NC(=O)COc1ccc(-c2nnco2)cc1,0.3,9.7,3.5,4.2,1.8,.,0.7,i,.
CCN(CC)C(=O)CSc1nc2cc3c(cc2c(=O)n1Cc1ccc(OC)cc1)OCO3,-1.4,1.6,18.1,0.5,1.6,-73.7,0.707,i,?
C[C@@H]1CN([C@H](C)CO)C(=O)c2cccc(NC(=O)C3CC3)c2O[C@@H]1CN(C)C(=O)NC1CCCCC1,-4.3,.,3.6,7.6,-0.2,.,.,i,.
C[C@H]1CN([C@@H](C)CO)C(=O)c2cc(C#Cc3ccccn3)cnc2O[C@H]1CN(C)CC1CCOCC1,-4.0,.,3.9,2.9,0.3,.,.,i,.
CCOC(=O)C(NC(C)=O)C(=O)Nc1ccc(C(C)(C)C)cc1 (centres undefined),0.0,2.9,5.3,7.7,6.3,-11.7,0.702,i,3.1%
C[C@@H]1CN([C@@H](C)CO)C(=O)c2cccc(NC(=O)C3CCOCC3)c2O[C@H]1CN(C)Cc1ccc(Cl)c(Cl)c1,-1.1,.,-12.8,-8.1,1.4,.,.,i,.
Cc1cc(-c2nnc(CCC(=O)NC(Cc3ccccc3)c3ccccc3)o2)no1 (centres undefined),.,-1.5,.,.,.,-4.1,0.67,.,3.0%
CCSc1cnn(-c2ccccc2)c(=O)c1SCC,.,4.0,.,.,.,-2.4,0.599,.,-85.2%
CC(C)c1ccc(NC(=O)Nc2cc3sccc3n2C)cc1,-1.1,6.5,-2.8,8.1,9.9,5.8,0.7,i,?
CCC(CC)NC(=O)Nc1ccc(C)cc1,-0.9,2.2,11.2,6.8,-2.3,-3.3,0.702,i,-2.4%
O=Cc1ccc(OC(=O)CCCCC(=O)Oc2ccc(C=O)cc2)cc1,0.7,-2.0,13.6,15.7,-2.4,1.5,0.652,i,7.8%
Cn1c2c(c(=O)n(C)c1=O)C(NS(=O)(=O)c1ccc(Cl)cc1)(C(F)(F)F)C(=O)N2 (centres undefined),.,6.9,.,.,.,-12.8,0.679,.,25.4%
O=C(COc1ccccc1[N+](=O)[O-])Nc1cccc(Cl)c1N1CCOCC1,4.2,2.0,-20.7,-45.4,-2.1,4.3,0.673,i,2.3%
O=C(NNC(=O)c1sccc1-n1cccc1)c1ccc(F)cc1,-1.9,-4.1,5.5,10.3,-10.1,36.2,0.673,i,-0.6%
Cc1cc(C(=O)O)c(=O)[nH]c1C,.,-2.3,.,.,.,-6.5,0.64,.,-0.9%
Cc1cc(NC(=O)C(C)SCC(=O)OC(C)C(=O)Nc2ccccc2C)no1 (centres undefined),-1.7,1.8,15.7,14.6,6.6,4.3,0.773,i,-1.9%
CCOc1ccc2c(c1)C(N(CCN1CCOCC1)C(=S)Nc1ccccc1OC)CC(C)(C)O2 (centres undefined),-14.3,0.5,5.9,1.8,-5.7,-2.4,0.663,i,2.9%
NC(=O)C(=O)NN=C1CCC(c2ccccc2)CC1 (centres undefined),.,1.1,.,.,.,-5.3,0.647,.,.
O=C(N/N=C/c1c[nH]c2ccccc12)c1ccc2c(c1)OCCO2,2.9,5.5,7.0,-18.2,-4.7,.,.,+,-6.6%
CCC(C)(C)n1nnnc1C(c1ccccc1)N1CCN(Cc2ccccc2)CC1 (centres undefined),0.1,-4.0,9.6,8.0,2.9,-0.7,0.693,i,.
COc1cccc2cc(C(N)=O)oc12,-1.7,6.1,0.2,-5.0,0.7,.,0.68,i,2.3%
Cc1ccc(S(=O)(=O)NC(=O)NC(=O)N(C)S(=O)(=O)c2ccc(C)cc2)cc1,-0.2,-1.0,3.5,10.6,-0.2,-5.2,0.693,i,.
CC(CC(=O)O)Nc1ccccc1O (centres undefined),-2.2,-0.4,-9.8,-0.2,4.8,54.2,0.66,i,?

# The list continues.
SMILES,MLL AF4-AF9 inh,HNF4A DNA FP,Ecoli rRNA inh,Ecoli rRNA inh OD600,Ecoli rRNA inh RFP,ALR H2O2 inh,Ecoli growth,FGF22 binding,Vif TR-FRET
O=C(c1cccnc1)N1CC[C@@H]2[C@H](CO)Nc3ccc(-c4ccccc4)cc3[C@@H]21,3.8,.,-0.2,-9.7,6.5,.,.,i,.
CC(C)(C)c1cc(NC(=O)C2(C)CCN2C(=O)C2(c3ccccc3)CCCC2)no1 (centres undefined),-1.2,-1.3,11.3,16.3,-3.7,.,.,i,.
Cn1c(SCc2cccnc2)nnc1-c1c[nH]c2ccccc12,-3.7,0.7,-3.3,6.9,1.5,.,0.711,i,-1.7%
Cc1c(C(=O)N2CCN(c3ncccn3)CC2)sc2nc3n(c(=O)c12)CCCC3,.,-0.1,.,.,.,-1.9,0.694,.,-6.8%
Cn1c(=O)c([N+](=O)[O-])c(-n2ccnc2)c2ccccc21,-2.1,-1.4,1.9,0.1,1.5,-15.4,0.663,i,?
O=C(C1CCN(S(=O)(=O)c2cccc3cccnc23)CC1)N1CCCCC1,3.0,-2.3,1.6,4.4,3.0,-3.1,0.719,i,.
O=C(NCCCN1CCCC1=O)C(=O)NCC1OCCN1S(=O)(=O)c1ccc(Cl)cc1 (centres undefined),1.8,3.2,2.3,-0.3,-2.5,0.5,0.696,i,.
O=C(Nc1ccc(Cl)cc1)Nc1ccccc1C(=O)O,-1.4,-2.0,-3.6,-1.8,-3.2,14.0,0.667,.,-3.8%
CC(C)N1CCN(Cc2cccs2)CC1CCO (centres undefined),-3.7,1.0,1.1,3.7,-1.3,.,0.679,i,.
COc1cc(C(O)c2nc(-c3ccncc3)cs2)ccc1F (centres undefined),0.3,1.2,.,.,.,.,.,i,.
CCC(C)NC(=O)Cn1nc(Cc2ccncc2)c2ccccc2c1=O (centres undefined),-3.7,-5.4,11.4,1.6,-1.6,-2.1,0.658,i,-17.8%
CC(CC(=O)NCc1cccnc1)c1ccccc1 (centres undefined),.,-0.5,.,.,.,1.1,0.781,.,0.8%
CCOc1ccc(CC2CC(=O)NC2=O)cc1 (centres undefined),.,-0.9,.,.,.,5.9,0.75,.,1.6%
Cc1ccc(C(=O)Nc2sc(C)c(-c3ccccc3)c2C(N)=O)cc1[N+](=O)[O-],.,1.0,.,.,.,-2.4,0.73,.,-5.2%
O=C(c1ccco1)N1CCN(C(=O)C2CCN(S(=O)(=O)c3cnc[nH]3)CC2)CC1,.,1.7,.,.,.,.,0.685,.,?

# This is a subset; the hit share may differ from the screen's.
